ugtP null kill = compounds lethal to S. aureus RN4220 ugtP deletion mutant; actives 0.54% (n = 330,000); OD600 growth, 16 h; some inactives read as strong as hits; growth inhibition, % (concentration not given with the values);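 active means z-score under -3 and OD600 up to 0.15 on both plates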;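 further: plate controls were untreated wells for no effect and antibiotic for full effect; wells of about 80 µL received 100 nL stock; the first replicate is given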
Mtb hypoxia inh = reduces hypoxia-regulated biosensor signal in M. tuberculosis; M. tuberculosis hypoxia-regulated fluorescent reporter, fluorescence; fluorescence inhibition, % (concentration not given with the values); actives 0.1% (n = 300,000);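 active means 35 to 45% if threefold the growth effect, above 45% if 1.5-fold the growth effect; inactive means the rest, general growth blockers included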;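 further: wells of about 50 µL received 100 nL stock; 0% = vehicle wells and 100% = reference inhibitor wells; whole bacteria with a GFP reporter of the hypoxia response; strong numbers were not always called active; many hits fall short of the cut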
RN4220 kill = S. aureus RN4220 growth inhibition; OD600, 16 h; inhibition, % (no concentration beside the values); actives 0.33% (n = 330,000); AID 1259311;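 active means z-score of -3 or lower and OD600 up to 0.18 on both plates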;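 further: plate controls were untreated cells for no effect and reference antibiotic for full effect; stock transfer was 100 nL into about 80 µL; one replicate is shown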
Bead autofluor = flagged as autofluorescent in microsphere protease counterscreen | compound autofluorescence counterscreen, microsphere flow cytometry; hits give high values | fluorescence intensity (no concentration beside the values) | actives 3.1% (n = 360,000) | AID 624483;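 active means at least 3 SD above the mean of all compounds, about 16000 in these data; inconclusive means too few beads counted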;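 further: 100 nL of 1 mM stock went into each well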
BJeLR viability = BJeLR cell viability loss. AID 1554. actives 0.17% (n = 300,000). inhibition, % (no concentration beside the values). BJeLR (HRASV12) viability, CellTiter-Glo ATP luminescence, 48 h; reference of the scale not given here;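 active means replicate mean above 50%; inconclusive means above 50% but judged a plate artefact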;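 further: 50 nL library stock added to about 25 µL; numbers are from one replicate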
PrP UTR inh = suppresses PrP 5' UTR mRNA reporter expression; cell-based PrP 5' UTR mRNA reporter, plate reader; inhibition, % (no concentration beside the values); AID 488862; actives 0.35% (n = 340,000);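 active means every replicate at 50% or more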;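 further: 0 = median of the neutral control wells; tested in H4 reporter cells; numbers are from one replicate; inactives centre near -14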
Mtb hypoxia inh growth = further read-out of Mtb hypoxia inh, marked with its call; growth inhibition, %; measured here: M. tuberculosis growth (absorbance);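 0% = vehicle and 100% = reference antibiotic; read after six days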
Numbers without * were called inactive; u = inconclusive; x = no result given.

SMILES	ugtP null kill	Mtb hypoxia inh	Mtb hypoxia inh growth	RN4220 kill	Bead autofluor	BJeLR viability	PrP UTR inh
O=C(C(Cc1ccccc1)N1C(=O)C2C3C=CC(C3)C2C1=O)N1CCCCC1 (stereo unspecified)	-9	-3	6	-6.6	2651	15	-18
COc1ccccc1NC(=O)CSc1ccc(-c2ccc(-n3ccnc3)cc2)nn1	2	2	6	2.2	u	2	1
COc1ccc(NC(=O)CCCCCn2nnc3ccccc3c2=O)cc1OC	0	-11	4	0.7	3515	-10	x
O=C1CCC/C(=N/NC(=O)C2CCN(S(=O)(=O)c3cccs3)CC2)C1	x	x	x	x	2595	9	-11
CCCC(=O)N1CCN(c2nnc(-c3ccc(C)cc3)c3ccccc23)CC1	1	-12	4	-2.4	3964	4	-8
CCN(CC(=O)Nc1ccc(NC(C)=O)cc1)C(=O)c1ccc(N(C)S(=O)(=O)c2ccc(C)cc2)cc1	-1	4	7	5.5	3684	x	-17
CCc1ccc(C(=O)COC(=O)CNC(=O)c2ccc(Br)o2)cc1	2	1	16	2.3	6594	-6	-4
COc1ccc(N2C(=O)CC(N(C)CCc3ccc(OC)c(OC)c3)C2=O)cc1 (stereo unspecified)	7	-2	7	4.2	4088	-1	-48
CCOC(=O)C1CCN(c2ccc(Cl)nn2)CC1	14	4	6	3.9	4464	-1	4
Cn1c(SCC(=O)NCCN2C(=O)CSC2=O)nc2ccccc2c1=O	6	5	3	0.6	3123	-2	-19
Cc1ccc(CN(Cc2cc3cc4c(cc3[nH]c2=O)OCCO4)Cc2nnnn2Cc2ccco2)cc1	2	-7	1	5.0	15869	-9	10
Cc1ccc(C2C3C(=O)N(c4ccccc4)C(=O)C3[C@]3(Cc4ccccc4)C(=O)N(CC4CC4)CC(=O)N23)o1 (stereo partly specified)	2	11	8	0.1	x	x	x

3 entries out of the list, ordered by molecular weight, lowest first.
SMILES	ugtP null kill	Mtb hypoxia inh	Mtb hypoxia inh growth	RN4220 kill	Bead autofluor	BJeLR viability	PrP UTR inh
CCCC(=O)N1CCN(c2nnc(-c3ccc(C)cc3)c3ccccc23)CC1	1	-12	4	-2.4	3964	4	-8
Cc1ccc(CN(Cc2cc3cc4c(cc3[nH]c2=O)OCCO4)Cc2nnnn2Cc2ccco2)cc1	2	-7	1	5.0	15869	-9	10
Cc1ccc(C2C3C(=O)N(c4ccccc4)C(=O)C3[C@]3(Cc4ccccc4)C(=O)N(CC4CC4)CC(=O)N23)o1 (stereo partly specified)	2	11	8	0.1	x	x	x

Among those listed so far, these contain an aryl thioether with sulfur outside any ring:
SMILES	ugtP null kill	Mtb hypoxia inh	Mtb hypoxia inh growth	RN4220 kill	Bead autofluor	BJeLR viability	PrP UTR inh
COc1ccccc1NC(=O)CSc1ccc(-c2ccc(-n3ccnc3)cc2)nn1	2	2	6	2.2	u	2	1
Cn1c(SCC(=O)NCCN2C(=O)CSC2=O)nc2ccccc2c1=O	6	5	3	0.6	3123	-2	-19

The results go on.
SMILES	ugtP null kill	Mtb hypoxia inh	Mtb hypoxia inh growth	RN4220 kill	Bead autofluor	BJeLR viability	PrP UTR inh
Cc1cc(C)nc(/N=C2/NC(=O)CS2)n1	5	9	1	2.4	10495	9	-15
O=C(COC(=O)c1cccc2ccccc12)Nc1cccnc1Cl	13	-2	1	-1.8	2266	-11	-20
Cc1cc(C(=O)Nc2nc3c(s2)CCCC3)cs1	-11	3	11	-4.6	16226*	0	-57
CCOCCn1c(N2CCCC2)nc2c1c(=O)[nH]c(=O)n2C	13	3	-1	2.5	x	-14	-17
O=C(CCCN1C(=O)c2cccc3cccc(c23)C1=O)NCCN1CCOCC1	3	9	6	0.1	4274	4	-36
NS(=O)(=O)c1ccc(NC(=O)c2ccc(COc3ccccc3)o2)cc1	6	-9	-18	2.1	2155	2	-9
CC(=O)c1ccc(NC(=O)c2ccn(C(=O)OCC(C)C)n2)cc1	3	1	0	6.6	10706	4	-81
Cc1ccc(C(=O)NC(C)c2nnc(SCC(=O)NC3CCCC3)n2C)cc1 (stereo unspecified)	3	11	-6	2.9	5803	-1	-4
COc1ccccc1CC(=O)Nc1ccc(S(=O)(=O)N(C)C2CCN(C)CC2)cc1	5	-1	-1	3.2	3013	x	-7
CCOC(=O)C1=C(C)NC(C)=C(C(=O)OCCNC(=O)c2cccnc2)C1c1cccc([N+](=O)[O-])c1 (stereo unspecified)	6	-2	9	-1.9	9774	-3	5
CC(C)CC1NC(=O)N(CC(=O)Nc2cc(F)ccc2F)C1=O (stereo unspecified)	3	4	7	2.1	3562	x	-11
Cc1ccc(S(=O)(=O)CCC(=O)OCc2ccc(Cl)cc2)cc1	6	-12	3	0.8	2525	9	-10

The list goes on (three carried over from the part before).
SMILES	ugtP null kill	Mtb hypoxia inh	Mtb hypoxia inh growth	RN4220 kill	Bead autofluor	BJeLR viability	PrP UTR inh
CCOC(=O)C1=C(C)NC(C)=C(C(=O)OCCNC(=O)c2cccnc2)C1c1cccc([N+](=O)[O-])c1 (stereo unspecified)	6	-2	9	-1.9	9774	-3	5
CC(C)CC1NC(=O)N(CC(=O)Nc2cc(F)ccc2F)C1=O (stereo unspecified)	3	4	7	2.1	3562	x	-11
Cc1ccc(S(=O)(=O)CCC(=O)OCc2ccc(Cl)cc2)cc1	6	-12	3	0.8	2525	9	-10
CCOC(=O)c1sc(NC(=O)/C=C/c2cnn(C)c2C)c(C(=O)OCC)c1C	2	-9	2	5.0	x	x	x
CC(=O)c1cccc(NC(=O)CSc2nc(=O)n(Cc3ccccn3)c3c2CCC3)c1	2	-2	3	0.2	5599	-2	-11
CCC1(N(C(C)=O)c2ccc(OC)cc2)C(=O)c2ccccc2C1=O	1	-2	-6	1.1	9437	8	-7
O=C(NCc1ccccc1)c1ccccc1Br	-8	2	3	1.5	3281	-1	-10
CCN(CC)S(=O)(=O)c1ccc(S(=O)(=O)N2CCC(C(=O)NC3CCN(Cc4ccccc4)CC3)CC2)cc1	12	13	-5	1.2	5835	-8	-27
COc1cc(C(=O)C(O)c2ccc(O)c(OC)c2)ccc1O (stereo unspecified)	3	-1	8	5.9	4281	x	-14
COc1ccc(NC(=O)CN(C)CC(=O)Nc2ccc(Cl)cc2F)cc1	-3	2	-1	0.2	3418	-1	-13
COc1cccc(NC(=O)CN(Cc2ccccc2)S(C)(=O)=O)c1	-8	-7	14	-0.3	2496	-4	-9
CCC1=NN(C(=O)COc2ccccc2)C(O)(c2ccncc2)C1 (stereo unspecified)	3	6	-5	8.1	4618	1	-2
COc1ccc(-c2[nH]ncc2/C=N/NC(=O)c2ccncc2)c(OC)c1	x	x	x	x	4839	1	-14
CC1(C(=O)NCc2ccccn2)C=CCN1C(=O)c1ccccc1 (stereo unspecified)	6	3	1	7.2	3960	3	-19
O=[N+]([O-])c1ccc(Cc2nnc(-c3ccc(F)cc3)o2)cc1	5	x	x	1.6	5024	17	-91

Structures listed so far that contain fluorine, in the order listed:
SMILES	ugtP null kill	Mtb hypoxia inh	Mtb hypoxia inh growth	RN4220 kill	Bead autofluor	BJeLR viability	PrP UTR inh
CC(C)CC1NC(=O)N(CC(=O)Nc2cc(F)ccc2F)C1=O (stereo unspecified)	3	4	7	2.1	3562	x	-11
COc1ccc(NC(=O)CN(C)CC(=O)Nc2ccc(Cl)cc2F)cc1	-3	2	-1	0.2	3418	-1	-13
O=[N+]([O-])c1ccc(Cc2nnc(-c3ccc(F)cc3)o2)cc1	5	x	x	1.6	5024	17	-91

Further compounds
SMILES	ugtP null kill	Mtb hypoxia inh	Mtb hypoxia inh growth	RN4220 kill	Bead autofluor	BJeLR viability	PrP UTR inh
O=S(=O)(c1ccc(C(F)(F)F)cc1)N1CCCN(c2ccc(C(F)(F)F)cn2)CC1	-22	8	-1	0.0	3995	3	-11
COc1ccc(C(=O)Nc2c(C)ccc3nsnc23)cc1[N+](=O)[O-]	1	6	1	1.9	2496	-1	-7
CC(C)(CN1CCC(Cc2ccccc2)CC1)NS(=O)(=O)c1ccccc1	-4	1	-2	2.3	5478	1	-4
COC(=O)CN(C(=S)Nc1ccc(F)cc1)C1CC(=O)N(c2ccc(OC)cc2)C1=O (stereo unspecified)	0	4	8	-1.6	22916*	9	-15
CNC(=O)c1csc(-c2ccncc2)n1	7	17	9	1.1	5357	-9	-26
Fc1ccc(Nc2nnns2)cc1	-2	15	2	5.6	5285	-3	-15
CC(C)CCn1c(CN2CCN(Cc3ccccc3)CC2)nc2c1c(=O)[nH]c(=O)n2C	-4	3	15	4.3	22665*	-13	1
C/C(=N\O)C(=O)NCCCn1ccnc1	x	x	x	x	2064	-5	-11
O=C(O)c1cccc(S(=O)(=O)Nc2ccccc2C(=O)NCCc2ccccc2)c1	1	-5	-1	-2.4	5215	-4	9
Cc1nc(-c2cccc(NS(=O)(=O)c3ccccc3)c2)cs1	25	x	x	5.7	4525	-1	-17
Cc1onc(-c2ccccc2Cl)c1C(=O)NCc1ccccn1	4	2	7	3.8	10612	3	-21
N=C1SCC(=O)N1c1ncc(Cc2cccc(Cl)c2)s1	98*	16	8	97*	4627	-2	-10
CCOC(=O)c1cnc2nc(SCc3ccccc3Cl)[nH]n2c1=O	4	3	-6	2.5	4013	8	x
CCNC(=S)SCCOc1ccc(C)cc1	22	-2	10	5.5	1962	-16	-13
CCCN(CC1CC1)C(=O)COc1ccccc1C(=O)NCc1ccccc1	-7	13	8	9.9	u	9	0
CC(C)c1ccc(C2NC(C(=O)O)CS2)cc1 (stereo unspecified)	-3	9	10	1.0	11193	-2	-24
CN(CC(=O)NCC(=O)Nc1ccc(F)cc1)CC(=O)Nc1ccc(Cl)c(C(F)(F)F)c1	-8	9	9	-5.6	3453	x	-14
O=c1c2ccccc2ncn1Cc1ccccc1	-2	7	-5	5.0	u	6	-26
O=C(NCCCNc1ccc([N+](=O)[O-])cc1Cl)c1ccccc1F	-3	17	13	3.4	4791	3	-29
Cc1cccc(NC(=S)NCCc2ccccc2)n1	3	3	14	11	5082	5	-5
Cc1nc(SCC#N)c2c3c(sc2n1)CCC3	-4	x	x	4.8	4896	-12	-11
Cc1c(C2(O)CCCCC2)[nH]c2cc(C(F)(F)F)ccc12	-4	20	7	-4.8	4447	x	-9
COc1ccc(C)cc1S(=O)(=O)N1CCN(S(=O)(=O)c2cc(C)ccc2OC)C(C)C1 (stereo unspecified)	10	2	5	0.9	3220	-11	-8
S=C1SCN(CCN2CCOCC2)CN1Cc1ccccc1	31	20	3	16	24511*	-1	-22
CCCc1cc(-n2cnc3ccccc32)n2c(nc3ccccc32)c1C#N	7	17	7	0.3	9071	-5	-18
O=C(c1ccc(N2CCCC2=O)cc1)N1CCN(c2ccccc2O)CC1	4	10	5	5.9	u	x	x
Cc1ccc(-c2nc3ncccc3o2)cc1NC(=O)c1cccs1	-3	6	-3	2.9	2637	-4	-9
COC(=O)c1ccccc1OC(=O)c1cc2ccccc2oc1=O	1	-3	-5	3.0	3996	4	-21
C[C@]12CCC3C(CC[C@@H]4CC(=O)CC[C@]34C)C1CC[C@@H]2O (stereo partly specified)	0	9	5	9.7	4373	x	-22
CCC(C(=O)OCC(=O)Nc1ccc(C(=O)Nc2ccc(OC)cc2)cc1)c1ccccc1 (stereo unspecified)	8	2	4	3.3	2139	-2	-9
Cc1cc(C(=O)CN2C(=O)NC(c3ccccc3)(c3ccccc3)C2=O)c(C)n1Cc1ccco1	-16	1	1	-1.2	4251	4	-9
COc1ccc(OC)c(NC(=O)COC(=O)c2c(C)noc2C)c1	1	-3	0	7.2	3927	x	-3
CC1CCN(S(=O)(=O)c2ccc3c(ccn3CC(=O)O)c2)CC1	4	-8	-5	1.8	5196	6	-8
CCOC(=O)C1CCN(C(=O)c2cc(COc3ccc(F)cc3F)on2)CC1	2	11	-1	3.4	4103	-3	-47

Bioassay records from PubChem BioAssay.

Random draw from the library. Share with any hit: about 4%.
